Screening data from PubChem.
NS1 function inh: inhibitors of influenza NS1 protein function | actives 0.4% (n = 270,000) | S. cerevisiae slowed by influenza A NS1, growth recovery by OD600 | Potency, µM (series often up to 46.1 µM), without a hit: at the top dose activity, positive = more growth; note: actives are rising curves; nearly all actives have a fitted effect of over 50% in size
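In this qHTS, NS1 from influenza A is expressed in budding yeast, where it slows growth. Cells are switched from glucose to 2% galactose medium (pH 6.0, -URA), treated with compound, and growth recovery is read at OD600.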
StopGo reporter: FMDV 2A StopGo reporter, luciferase signal. Potency, µM (titrated, usually from 57.9 µM), without a hit: top-dose signal change, negative = less light. actives 1.2% (n = 410,000). human cells with a luciferase reporter of 2A StopGo recoding; control for the full effect not named in the record. AID 1159524; active = well fitted falling curve with a large enough effect; inconclusive = small, poorly fitted or top-dose-only effect; inactive = no such curve, though single readings can be large or run the other way; tested in HEK293T cells; note: % is set by controls: 0 for no effect and ±100 for the full control effect; nearly all actives have a fitted effect of over 45% in size; luciferase light after 4 h
Cruzain inh noDet: blocks cruzain activity in detergent-free assay; P25779; purified cruzain, Z-FR-AMC fluorescence, no detergent; Potency, µM, for inactives: max response, negative = inhibition, usual class: inhibitors; actives 2.3% (n = 200,000); active = well fitted curve in the direction sought with a large enough effect; inconclusive = small, poorly fitted or top-dose-only effect, or another doubt; inactive = no such curve, though single readings can be large; an effect the other way counts as inactive or inconclusive;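 note: plate controls were enzyme without inhibitor for no effect and buffer without enzyme for full effect; nearly all actives have a fitted effect of over 40% in size; top concentration of the series not given in the record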
Target sequence (P25779 123-467 limits assumed): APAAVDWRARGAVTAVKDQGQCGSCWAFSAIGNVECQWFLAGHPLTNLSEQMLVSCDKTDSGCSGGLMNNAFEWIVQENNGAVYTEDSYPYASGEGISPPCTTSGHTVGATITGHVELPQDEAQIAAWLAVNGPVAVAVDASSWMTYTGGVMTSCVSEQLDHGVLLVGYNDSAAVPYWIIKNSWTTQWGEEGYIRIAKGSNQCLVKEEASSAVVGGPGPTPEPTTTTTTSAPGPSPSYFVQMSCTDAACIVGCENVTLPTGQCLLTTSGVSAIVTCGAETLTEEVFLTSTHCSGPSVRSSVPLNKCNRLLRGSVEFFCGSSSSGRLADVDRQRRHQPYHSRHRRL
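Detergent-free condition (0.00005% Triton X-100) in acetate buffer pH 5.5 with DTT. 1.5 nM enzyme and compound were pre-mixed 15 min, then 2 uM Z-FR-AMC substrate added; reaction progress from fluorescence change between first and third reads (60 s).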
LASV entry inh: inhibitors of Lassa virus binding or cell entry; Lassa virus pseudotype entry inhibition, cell reporter; control for the full effect not named in the record; Potency, µM (series often up to 37.9 µM), inactives show top-dose activity change, negative = inhibition, actives largely listed as inhibitors; actives 1.2% (n = 300,000); active means well fitted inhibition curve with a large enough effect; inconclusive means small, poorly fitted or top-dose-only effect, or effect the other way; inactive means flat fitted curve, though single readings scatter; tested in HEK293 cells; note: % is set by controls: 0 for no effect and ±100 for the full control effect; nearly all actives have a fitted effect of over 50% in size; luciferase read-out
RE007 growth inh: less growth of the S. pombe RE007 Vpr strain | S. pombe RE007 Vpr strain, BacTiter-Glo ATP luminescence, 24 h; control for the full effect not named in the record | actives 0.21% (n = 360,000) | Potency, µM (series often up to 92.2 µM), inactives show at the highest dose activity change, negative = less growth; active = well fitted falling curve with a large enough effect; inconclusive = small, poorly fitted or top-dose-only effect; inactive = no such curve, though single readings can be large or run the other way;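 note: % is set by controls: 0 for no effect and ±100 for the full control effect; nearly all actives have a fitted effect of over 50% in size; the assay follows cell death caused by Vpr and the record does not say whether a fall means rescue or toxicity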
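Fission yeast RE007 carrying one integrated HIV-1 vpr copy, seeded at OD 0.01 in PMG+AL medium with 23 nL pinned compound. Grown 24 h at 30 degrees; viability read by BacTiter-Glo luminescence after 5 min.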
Cruzain inh Det: cruzain (T. cruzi) inhibition with detergent. P25779. purified cruzain, Z-FR-AMC fluorescence, 0.01% Triton. Potency, µM, for the others: max response, negative = inhibition, actives largely listed as inhibitors. actives 0.43% (n = 200,000). AID 1478; active = well fitted curve in the direction sought with a large enough effect; inconclusive = small, poorly fitted or top-dose-only effect, or another doubt; inactive = no such curve, though single readings can be large; an effect the other way counts as inactive or inconclusive;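 note: plate controls were neutral wells for no effect and buffer without enzyme for full effect; nearly all actives have a fitted effect of over 40% in size; top concentration of the series not given in the record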
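Z-FR-AMC hydrolysis (2 uM substrate) by cruzain (1.5 nM) monitored kinetically at ex 360/em 450 nm after 15 min room-temperature compound exposure; 0.01% Triton X-100, pH 5.5, 5 mM DTT.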
SARS PLP yeast: blocks SARS-CoV papain-like protease in a yeast assay | S. cerevisiae expressing SARS-CoV PLpro, growth rescue; control for the full effect not named in the record | Potency, µM (top dose mostly 32.9 µM), for the others: top-dose activity, positive = growth rescue | actives 0.19% (n = 330,000); note: 0% is about no effect; nearly all actives have a fitted effect of over 55% in size; growth read by luminescence after 48 h
MARV entry inh: blocks Marburg virus binding to or entry into cells. Marburg virus pseudotyped entry inhibition, cell reporter; control for the full effect not named in the record; about a third of the inactives were read at about 46 µM. Potency, µM (series often up to 37.8 µM), for inactives: at the highest dose activity change, negative = inhibition, actives largely listed as inhibitors. actives 1.8% (n = 300,000); active = well fitted inhibition curve with a large enough effect; inconclusive = small, poorly fitted or top-dose-only effect, or effect the other way; inactive = flat fitted curve, though single readings scatter; tested in HEK293 cells; about a fifth of its hits are not listed in these tables; note: % is set by controls: 0 for no effect and ±100 for the full control effect; luciferase read-out
* marks the source's active call; other numbers are inactive results; ? = inconclusive; . = no result given; & = joins results of further samples; [ ] = another dose, or the depositor's remark. Unless noted, calls come from the whole dose curve; as a rule, active means well fitted rising curve with a large enough effect; inconclusive means small, poorly fitted or top-dose-only effect; inactive means no such curve, though single readings can be large or run the other way. Potency is the fitted concentration of half-maximal effect.

SMILES	NS1 function inh	StopGo reporter	Cruzain inh noDet	LASV entry inh	RE007 growth inh	Cruzain inh Det	SARS PLP yeast	MARV entry inh
O=C(CCC(=O)c1ccc(Cl)cc1)NCc1ccccc1	-13%	-4%	.	.	-1%	.	0%	.
N#Cc1cccnc1N1CCN(C(=O)c2ccco2)CC1	4%	21%	.	?	2%	.	0%	?
CN(CC1CCOCC1)C(=O)CC1C(=O)NCCN1Cc1ccc(Cl)c(F)c1 (stereo not drawn)	-2%	-19%	.	.	5%	.	1%	.
COc1ccc(-c2nn3c(-c4ccccc4)nnc3s2)cc1	-54%	13%	?	-9%	-25%	-11%	0%	-39%
O=C(NC(=S)N1CCOCC1)c1cc2ccccc2o1	9%	67%[activator]	.	9%[46.1 µM]	-6%	.	0%	?
c1ccc(-n2ncc3c(NCc4cccnc4)ncnc32)cc1	-12%	7%	-1%	6%	2%	1.6%	-10%	-11%
CC(=O)Nc1cc(C(=O)OCC(=O)c2ccc(Cl)cc2Cl)ccc1C	5%	27%	28%	?	1%	2.9%	0%	17%
O=C(NCCc1ccccc1)C(=O)c1c(-c2ccccc2)[nH]c2ccccc12	-6%	35%[activator]	13%	3%	-1%	-5.5%	9%	-20%
Cc1ccnc(NS(=O)(=O)c2ccc(N3C(=O)c4c(Cl)c(Cl)c(Cl)c(Cl)c4C3=O)cc2)n1	11%	-1%	-4%	0%	9%	-4.9%	0%	2%
O=S(=O)(Cc1ccccc1Cl)NCCc1ccccc1	.	32%[activator]	.	1%[46.1 µM]	-7%	.	1%	-13%[46.1 µM]
COCCCN(Cc1ccccn1)S(=O)(=O)Cc1ccccc1	3%	-1%	10%	0%	20%	-1.9%	3%	-8%
Cc1ccc(/C=C2\SC(=O)N(CCC(=O)N3CCN(C)CC3)C2=O)cc1	-5%	24%	.	16%[46.1 µM]	-16%	.	3%	?
COc1ccc(-n2c(SCC(=O)Nc3ccccc3C)nc(O)c(Cc3ccccc3)c2=O)cc1	17%	-7%	.	-5%	9%	.	-4%	-9%
COc1cc(OC)c2ccc(=O)oc2c1C(CC(=O)N1CCOCC1)c1ccc2c(c1)OCO2 (stereo not drawn)	-1%	-9%	.	.	1%	.	1%	.
O=C(O)c1ccc(CSc2nnc(COc3ccccc3)o2)cc1	.	6%	.	-8%	-22%	.	0%	-3%[46.1 µM]
Cc1cc(N2CCN(C)CC2)nc2ccc(NC(=O)Nc3ccccc3Br)cc12	.	19%	22%	?	.	-2.0%	.	.
S=C(NC1CCCCC1)N1CCN(C2CCCCC2)CC1	4%	-13%	.	1%	-5%	.	0%	0%[46.1 µM]
O=C(COC(=O)C1CCC(=O)N1)Nc1ccccc1OC(F)F (stereo not drawn)	.	-8%	.	-16%[46.1 µM]	8%	.	-9%	7%[46.1 µM]
Nc1c(-c2ccc(Cl)cc2)cnn1-c1ccccc1	-5%	-15%	.	?	-12%	.	-4%	?
Cc1ccc(S(=O)(=O)NCC2CCC(C(=O)NCc3cccnc3)CC2)cc1 (stereo not drawn)	-3%	-11%	.	-10%	6%	.	2%	?
N#Cc1c(N)nc2c(c1-c1ccc(F)cc1)CCC2	-1%	-8%	.	8%	-6%	.	-1%	0%[46.1 µM]
CCOCN(C(=O)Cn1c(CO)nc2ccccc21)c1c(C)cccc1CC	2%	-14%	10%	?	1%	5.9%	2%	?
Oc1c(Br)cc(Br)cc1Br	.	-27%	5%	.	-20%	-2.1%	9%	.
O=C(NC1(C(=O)NC2CCCCC2)CCCCC1)c1ccc2c(c1)OCO2	4%	15%	-8%	23%	-6%	-0.1%	7%	-11%
CN(C)S(=O)(=O)N(CC(=O)Nc1ccc(C(F)(F)F)cc1)c1ccccc1	.	-17%	-3%	-13%[46.1 µM]	.	-11%	.	.
SMILES	NS1 function inh	StopGo reporter	Cruzain inh noDet	LASV entry inh	RE007 growth inh	Cruzain inh Det	SARS PLP yeast	MARV entry inh
Cc1nn(-c2ccccc2)c(Cl)c1/C=N/NC(=O)c1cccnc1	-16%	45%[activator]	0%	?	-3%	-2.5%	-19%	1%
O=S(=O)(Nc1ncccn1)c1ccc(-n2cnnn2)cc1	-3%	-7%	.	.	18%	.	0%	.
COC(=O)c1ccc([N+](=O)[O-])cc1N1C(=O)C2C3CCC(C3)C2C1=O (stereo not drawn)	2%	-5%	.	.	10%	.	0%	.
CCOC(=O)c1c(C)cc(=O)oc1C	4%	-18%	0%	6%	-7%	1.1%	2%	1%
C=CCN1C(=O)C2(C(C(=O)OCC)=C(N)Oc3ccccc32)c2c1c1ccccc1oc2=O (stereo not drawn)	-45%	5%	15%	-3%	8%	-2.9%	0%	-8%&-8%
CNc1ccccc(C(=O)/C=C/c2ccccc2OC)c1=O	6%	?	8%	?	-28%	-16%	-8%	11µM*
O=C(Nc1ccc(F)cc1)Nn1cnnc1	4%	-3%	.	?	0%	.	0%	15%[46.1 µM]
CC1Cc2cccc3ccc(=O)n(c23)C1 (stereo not drawn)	.	-10%	.	4%[46.1 µM]	7%	.	.	13%
CCN(C(=O)CSc1ncccn1)c1c(N)n(Cc2ccccc2)c(=O)[nH]c1=O	.	-8%	.	12%	25%	.	-5%	?
COc1cc(Br)c(-c2sc(Nc3ccccc3)n[n+]2-c2ccccc2)cc1OC	-7%	12%	.	.	3%	.	2%	.
O=C(CNc1ccccc1)N/N=C/c1c(O)ccc2ccccc12	3%	8%	.	.	-3%	.	1%	.
O=C(COc1ccccc1F)N1CCc2ccccc2C1	1%	43%[activator]	.	.	26%	.	9%	.
CCN(CC)C(=O)c1ccc2c(c1)nnn2C	25%	4%	16%	9%	-5%	-3.4%	6%	1%
Cc1c(CN2CCN(c3cccc(C(F)(F)F)c3)CC2)c(=O)n(-c2ccccc2)n1C	-3%	-6%	-6%	5%	-3%	1.4%	10%	-6%
Cc1nn(-c2cccc(Cl)c2)c2c1C(c1cccnc1)C(C#N)=C(N)O2 (stereo not drawn)	-1%	-23%	12%	-11%	-20%	-8.4%	4%	?
CN(C)S(=O)(=O)c1ccc(C(=O)NNC(=O)C23CC4CC(CC(C4)C2)C3)cc1	.	-5%	.	-3%	-18%	.	-8%	22%
COc1ccccc1NC(=O)c1sc2nc3n(c(=O)c2c1C)CCC3	1%	8%	.	.	0%	.	-1%	.
CCOC(=O)c1c(NC(=O)COc2ccccc2)sc2c1CC(C)(C)NC2(C)C	.	?	.	.	2%	.	0%	?
CCOc1ccccc1C(=O)Nc1cc2c(cc1N1CCCC1)n(CC)c(=O)n2CC	-27%	?	.	.	1%	.	3%	.
Cc1cccc(OCC(=O)NNC(=O)c2cc3ccccc3oc2=O)c1	-65%	-19%	-15%	6%	0%	-2.3%	5%	8%
Cc1cc2nccc(-c3ccc(OCCCF)cc3)n2n1	-7%	-16%	.	.	-2%	.	-2%	.
CC(C)C(=O)Nc1c2c(nn1-c1ccc(F)cc1)CSC2	0%	-24%	.	.	-6%	.	?	.
CCOC(=O)c1cc2c(=O)n3ccccc3nc2n(Cc2ccco2)c1=NC(=O)c1ccc(C(C)(C)C)cc1	.	?	-6%	29%[46.1 µM]	.	-4.1%	.	29%[46.1 µM]
CCCCN(CCCNC(=O)c1c(C)cc(=O)oc1C)c1ccccc1	-36%	-1%	?	0%	17%	-6.2%	1%	-4%
CNc1nc(NC#N)nc(SC)n1	-2%	-12%	.	.	8%	.	1%	.
SMILES	NS1 function inh	StopGo reporter	Cruzain inh noDet	LASV entry inh	RE007 growth inh	Cruzain inh Det	SARS PLP yeast	MARV entry inh
CCC(CC)N1CCN(C(=O)Cc2ccccc2)CC1	4%	.	-5%	-12%	4%	0.8%	-10%	-1%
COC(=O)CNC(=O)C1CCCN1C(=O)OC(C)(C)C (stereo not drawn)	-1%	0%	6%	10%	1%	1.6%	19%	15%
COc1ccc(C(C)NC(=O)CCc2ccccc2)cc1 (stereo not drawn)	-4%	13%	.	-15%	3%	.	1%	-1%
Cc1cccn2cc(-c3ccccc3)nc12	-12%	-4%	5%	?	-25%	-2.3%	-4%	?
Cc1ccc(N2C(=O)C3C4CC(=O)C(c5ccccc54)C3C2=O)cc1C (stereo not drawn)	5%	-11%	3%	1%	-6%	-1.0%	-8%	0%
O=S(=O)(NCCS(=O)(=O)N1CCN(c2ccccc2)CC1)c1ccc(Br)cc1	.	-7%	4%	1%[46.1 µM]	.	-1.7%	.	.
Cc1ccc(C)n1-c1ccc(-c2nnc3n2CCCCC3)s1	0%	2%	-2%	?	-1%	3.1%	-2%	-7%
COC(=O)c1cc(C(=O)CSc2nc(C)cc(C)n2)ccc1O	-57%	2%	5%	7%	-7%	3.6%	-6%	4%
N#C/C(=C\c1c(N2CCCCC2)nc2ccccn2c1=O)C(=O)NC1CCS(=O)(=O)C1 (stereo not drawn)	1%	-9%	-8%	9%	3%	-3.1%	18%	3%
CN(C)/C=C1/OC(=O)C(C#N)=C1c1ccc(Cl)cc1	-2%	-15%	.	.	4%	.	4%	.
O=C(NCCNCc1cccs1)c1ccccc1F	.	9%	.	-15%	3%	.	0%	1%
COc1ccccc1CNC(=O)c1cnc2c(-c3ccccc3)c(C)nn2c1C	.	4%	-23%	-9%[46.1 µM]	.	-6.3%	.	.
Cn1c(=O)c(=O)n(C)c2cc(N3CCCC3)c(NS(=O)(=O)c3ccc(F)cc3)cc21	-4%	-14%	.	2%[46.1 µM]	-11%	.	-5%	?
CCCCCCCCCCCCCCCC[n+]1cccc(C(=O)N(CC)CC)c1	-31%	-24%&-18%	?	11µM*	?	-7.6%	-67%	7.1µM*
Cc1ccc(-n2ncc3c(N4CCC(C(N)=O)CC4)ncnc32)c(C)c1	-15%	53%[activator]	-3%	?	-6%[3.69 µM]	-3.9%	0%	12%&12%
COc1ccc(N2CCN(C(=O)Cc3ccc(C)cc3)CC2)cc1	-36%	-17%	.	0%	6%	.	-14%	2%
